TDP1 block – qHTS Assay for Inhibitors of Tyrosyl-DNA Phosphodiesterase (TDP1); hit rate 0.28% among 350,000; Potency, µM (doses to about 130 µM), inactives show at the highest dose activity change, negative = inhibition, actives largely listed as inhibitors; recombinant TDP1, AlphaScreen DNA substrate cleavage; note: nearly all actives have a fitted effect of over 40% in size
Target sequence (Q9NUW8 whole entry, looked up): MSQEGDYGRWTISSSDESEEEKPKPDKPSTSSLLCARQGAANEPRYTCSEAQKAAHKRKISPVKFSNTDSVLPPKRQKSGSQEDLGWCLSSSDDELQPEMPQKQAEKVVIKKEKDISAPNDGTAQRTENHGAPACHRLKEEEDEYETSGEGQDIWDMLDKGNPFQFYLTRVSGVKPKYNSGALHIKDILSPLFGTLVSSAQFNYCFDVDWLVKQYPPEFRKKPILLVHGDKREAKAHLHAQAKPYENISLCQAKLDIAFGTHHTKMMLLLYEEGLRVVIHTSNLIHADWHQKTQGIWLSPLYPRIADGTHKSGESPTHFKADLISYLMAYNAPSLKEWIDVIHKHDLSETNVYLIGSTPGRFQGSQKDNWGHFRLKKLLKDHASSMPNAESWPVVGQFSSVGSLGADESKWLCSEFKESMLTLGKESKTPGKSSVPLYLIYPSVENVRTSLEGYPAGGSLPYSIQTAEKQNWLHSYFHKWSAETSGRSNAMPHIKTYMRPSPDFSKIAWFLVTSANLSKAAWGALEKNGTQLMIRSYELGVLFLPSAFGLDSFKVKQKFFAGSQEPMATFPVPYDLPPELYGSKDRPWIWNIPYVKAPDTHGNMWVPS
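Here, a 5' biotin and 3' phosphotyrosine-FITC DNA oligonucleotide reports Tdp1 activity: intact substrate bridges AlphaScreen beads, while cleavage leaves a 3' phosphate and drops signal. All incubations at room temperature.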
N370S GC mod – qHTS Assay for Inhibitors and Activators of N370S glucocerebrosidase as a Potential Chaperone Treatment of Gaucher Disease; Potency, µM (top dose mostly 59.4 µM), for the others: at the highest dose activity change, negative = inhibition, actives largely listed as inhibitors; hit rate 0.092% among 330,000; AID 2101, 2009; Lysosomal acid glucosylceramidase (Homo sapiens), P04062; N370S GC spleen homogenate, 4MU-glucoside fluorescence;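 note: 0% = full enzyme activity and -100% = no enzyme basal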
The depositor's hits bear a star; ? = inconclusive; · = no result given; & = joins results of further samples; [ ] = remark or other dose. Calls come from the whole dose curve; as a rule, active = well fitted curve in the direction sought with a large enough effect; inconclusive = small, poorly fitted or top-dose-only effect, or another doubt; inactive = no such curve, though single readings can be large; an effect the other way counts as inactive or inconclusive. Unless noted, % is set by controls: 0 for no effect and ±100 for the full control effect; potency is the fitted concentration of half-maximal effect. Only part of the results is shown; most or all hits stand in other tables.

Each structure is followed by: TDP1 block, N370S GC mod
CCOC(=O)C1(Cc2cccc(F)c2)CCN(Cc2cnn(CC)c2)CC1
  0.0%, -8.6%
CC(NC(=O)COC(=O)c1ccc(S(=O)(=O)N2CCOCC2)cc1)c1ccccc1 (centres undefined)
  -1.9%, ·
CCOC(=O)c1c(NC(=O)CSc2ncn[nH]2)sc(C(=O)N(C)C)c1C
  0.8%, -2.2%
CC(=O)Nc1ccc(NC(=O)C(C)Oc2ccccc2C(=O)NCc2ccccc2)cc1 (centres undefined)
  3.2%, ·
CCOc1ccc(N(C(=O)CNC(=O)c2ccco2)C(C(=O)NC2CCCC2)c2ccncc2)cc1 (centres undefined)
  -7.6%, 1.1%
CN1C(=O)C(=O)/C(=C(/O)c2ccc(Br)cc2)C1c1ccc(F)cc1 (centres undefined)
  8.0%, -0.9%
O=C(CNC(=O)c1cccs1)OCC(=O)c1ccc([N+](=O)[O-])cc1
  8.6%, 0.8%
COc1cccc(NC(=O)CN(C)C(=O)c2cc(S(=O)(=O)NCc3ccccc3)ccc2C)c1
  4.5%, -20.6%
Cn1c2c(c(=O)n(C)c1=O)[C@@H]1c3c(ccc4ccccc34)OC[C@@H]1CO2
  -3.8%, -0.2%
COc1ccc2c(c1)C(=O)N(c1ccc(C)cc1C)C(=O)C2
  2.5%, 13.7%
Cn1c(=O)c2c(ncn2CCNC2=NCCCCC2)n(C)c1=O
  2.7%, 1.1%
Cc1nc(N)c(C#N)c(-c2cccnc2)c1-c1ccccc1
  ·, 2.6%
Cc1ccc(S(=O)(=O)Cn2nnnc2C(c2ccccc2)N2CCN(c3ncccn3)CC2)cc1 (centres undefined)
  -1.9%, 9.0%
O=C(COC(=O)COc1ccccc1)Nc1ccc(S(=O)(=O)N2CCOCC2)cc1
  0.0%, -7.0%
S=c1[nH]nc(CSCc2ccccc2Cl)n1-c1ccccc1
  7.6%, 13.9%
CCN(C(=O)CSc1nc(N)cc(=O)[nH]1)C1CCS(=O)(=O)C1 (centres undefined)
  -0.4%, ·
CC(C)(C)OC(=O)NCCCCCc1nnc(SCc2ccccc2F)o1
  0.0%, -12.3%
COc1ccc(CC(=O)Nc2ccc(S(=O)(=O)Nc3cc(C)on3)cc2)cc1OC
  -1.0%, -22.7%
COc1ccc(N2C(=O)NC3CC2(C)Oc2ccc(Cl)cc23)cc1OC (centres undefined)
  2.9%, 3.9%
O=C(CSc1nnc(-c2cccs2)n1Cc1ccccc1)NCc1ccc2c(c1)OCO2
  7.5%, 24.6%
Cc1nc(SCCOc2ccc(F)cc2)c2ccccc2n1
  0.0%, 18.1%
O=C1C2C3CCC(C3)C2C(=O)N1CNc1ccccc1 (centres undefined)
  5.4%, 3.8%
O=C(NC(O)C(=O)c1ccccc1)c1cccs1 (centres undefined)
  -1.3%, -0.6%
O=C(Oc1ccc(C(=S)N2CCOCC2)cc1)c1ccc([N+](=O)[O-])cc1
  ·, 0.3%
Cc1csc(SC(C)C(=O)Nc2ccc(Cl)cn2)n1 (centres undefined)
  3.1%, -20.9%
CSc1nc(C(=O)N2CCCC(Nc3ccc(C)c(C)c3)C2)cs1 (centres undefined)
  9.5%, 7.2%
COc1ccc(N2C(=O)CC(N3CCN(S(=O)(=O)c4cc(C)ccc4C)CC3)C2=O)cc1 (centres undefined)
  8.0%, 4.9%
CCn1cc(C(=O)NC(=S)Nc2ccccc2Br)cn1
  5.6%, 5.8%
Cc1cccc(OCCn2c(=O)sc3ccccc32)c1
  0.2%, 20.1%
CCOc1ccc(S(=O)(=O)N2CCC(C(=O)N3CCN(c4ccccc4)CC3)CC2)cc1
  1.6%, -6.5%

Single records (already shown):
Results for `CCOC(=O)C1(Cc2cccc(F)c2)CCN(Cc2cnn(CC)c2)CC1` → TDP1 block = 0.0%; N370S GC mod = -8.6%
Results for `Cn1c(=O)c2c(ncn2CCNC2=NCCCCC2)n(C)c1=O` → TDP1 block = 2.7%; N370S GC mod = 1.1%

Remaining list, next part:
Each structure is followed by: TDP1 block, N370S GC mod
COc1ccc(S(=O)(=O)N2CCC(C(=O)N[C@@H](C)C(=O)NCc3ccc(F)cc3)CC2)cc1
  -0.6%, -0.4%
Cc1ccc(-n2nc3c(c2NC(=O)c2ccco2)CS(=O)(=O)C3)c(C)c1
  0.3%, -6.4%
CSc1ccccc1NC(=O)CN(C)Cc1c(O)ccc2ccccc12
  3.8%, 25.8%
CCc1ccc(-c2nc(C)c(CCO)c(=O)[nH]2)cc1
  2.7%, -8.1%
COc1cccc(C(=O)N2CCN(Cc3ccco3)CC2)c1OC
  -13.7%, 2.8%
CC1(C)CC(=O)c2c(n(-c3cccc4ccccc34)ccc2=O)C1
  0.0%, -6.5%
Cc1nn(-c2ccccc2)c2sc(C(=O)N3CCCCC3)cc12
  -2.0%, ?
CC(C)[C@H](NC(=O)C1CCN(S(=O)(=O)c2ccccc2)CC1)C(=O)NCc1ccco1
  0.0%, 24.7%
O=C(C[n+]1ccc(C(=O)NCCCO)cc1)c1cccc(Br)c1
  0.0%, -14.8%
NC(=O)c1cc2ccccc2o/c1=N/NC(=O)c1cccc(F)c1
  ·, -2.9%
O=C(Cn1cc(C(F)(F)F)cc(Cl)c1=O)Nc1cccc(Cl)c1
  0.0%, 26.6%
Cc1nc2ccc(NC(=O)c3ccc(S(=O)(=O)N(C)C)cc3)cc2s1
  1.2%, 20.7%
Cc1ccc(CNC(=O)C2CCC(=O)N2CCc2ccccc2)cc1 (centres undefined)
  5.1%, 7.0%
COC(=O)C(Cc1ccccc1)NC(=O)C(CC(C)C)NC(=O)OC(C)(C)C (centres undefined)
  0.6%, -5.9%
c1nc(N2CCC3(CC2)OCCO3)c2c3c(sc2n1)CCCC3
  2.1%, -4.0%
Cc1nnc(C)n1/N=C/c1cc2ccccc2nc1Cl
  6.5%, 1.1%
COc1ccc(C2C(C(=O)c3ccccc3)=C(C)Nc3nc4ccccc4n32)cc1OC (centres undefined)
  -1.3%, 8.4%
CCCCNC(=S)Nc1ccc2[nH]c(=O)[nH]c2c1
  0.0%, 26.4%
Cc1cc(C)n(C2CCCCC2OC(=O)CCc2ccccc2)n1 (centres undefined)
  3.1%, 12.8%
O=C(NNC(=O)c1ccccc1O)c1ccc(S(=O)(=O)Nc2ccccc2F)cc1
  ·, -5.0%
Cc1cccc(NC(=O)NNS(=O)(=O)c2ccc(F)cc2)c1
  -5.1%, 10.9%
O=C(Cn1cc([N+](=O)[O-])cn1)Nc1ccc(Cn2cc(Br)cn2)cc1
  2.7%, 9.2%
CC(=O)Nc1c(C(=O)N2CCOCC2)sc2nc3c(cc12)COC(C)(C)C3
  -4.4%, 7.5%
O=C(CCCN1C(=O)c2ccccc2C1=O)Nc1ccc(S(=O)(=O)N2CCCCC2)cc1
  -2.3%, 12.5%
CCOC(=O)CSc1nnc(-c2ccco2)n1-c1ccccc1
  3.1%, 10.0%
Cn1cccc1C(=O)NCC1COc2ccccc2O1 (centres undefined)
  0.9%, -9.6%
O=C(COC(=O)c1ccccn1)Nc1ncc(C(F)(F)F)cc1Cl
  -2.0%, -0.1%
C=COCCNC(=O)C1CC(=O)N(c2ccc(C)cc2)C1 (centres undefined)
  0.5%, 1.3%
COc1ccc(Cl)cc1NC(=O)CN(C)C(=O)Cc1n[nH]c(=O)c2ccccc12
  0.8%, -6.6%
COC(=O)c1ccccc1NC(=O)CN(c1c(C)cccc1C)S(C)(=O)=O
  ·, 7.0%

Compounds shown so far containing a CF3 group:
Each structure is followed by: TDP1 block, N370S GC mod
O=C(Cn1cc(C(F)(F)F)cc(Cl)c1=O)Nc1cccc(Cl)c1
  0.0%, 26.6%
O=C(COC(=O)c1ccccn1)Nc1ncc(C(F)(F)F)cc1Cl
  -2.0%, -0.1%

(list continues)
Each structure is followed by: TDP1 block, N370S GC mod
Cc1ccc(NC(=O)CN(C)C(=O)c2ccccc2Cc2ccccc2)cc1
  4.0%, -3.9%
CC(Sc1nnc(CC(C)c2ccccc2)n1N)C(N)=O (centres undefined)
  ·, -5.6%
CC(=O)N(Cc1cc(=O)[nH]c2ccccc12)c1ccc(C)cc1
  8.8%, -6.6%
O=C(CNCc1ccccn1)Nc1ccc([N+](=O)[O-])cc1C(=O)Nc1ccccc1F
  -4.4%, -14.4%
COc1ccc(C(=O)NNC(=O)C(=O)Nc2cccc3ccccc23)cc1
  2.8%, -0.5%
COC(=O)Cc1c(C)nc2nc(Cc3ccccc3)[nH]n2c1=O
  4.7%, 6.2%
C=CCOc1ccc(C2/C(=C(/O)c3ccc(OC)cc3)C(=O)C(=O)N2CCN2CCNCC2)cc1 (centres undefined)
  ·, -10.0%
COc1ccc(NC(=O)c2ccc(-n3nc(C)c[n+]3[O-])cc2)cc1
  7.0%, 4.6%
Cc1cccc(Nc2nc(N)nc(CN3CCN(Cc4ccc5c(c4)OCO5)CC3)n2)c1
  4.0%, 5.0%[2.35 µM]
CC1CCN(C(=O)CCS(=O)(=O)c2cc3c(cc2Cl)NC(=O)CO3)CC1
  0.0%, -5.6%
Cc1ccc(-n2ncc3c2CC(C)(C)CC3NC(=O)c2ccc[n+]([O-])c2)cc1 (centres undefined)
  5.3%, -7.2%
COc1ccc(-c2nn(Cc3ccccc3)cc2C(=O)N2CCN(c3ncccn3)CC2)cc1
  2.6%, ·
Cc1[nH]c2ccccc2c1/C=C(\C#N)C(=O)NCC1CCCO1 (centres undefined)
  4.8%, -13.8%
CCOc1ccc(N(C(C)C(=O)NCc2ccco2)S(C)(=O)=O)cc1 (centres undefined)
  4.6%, 3.8%
COc1ccc(Cl)cc1S(=O)(=O)Nc1ccc2c(c1)n(C)c(=O)n2C
  8.0%&-5.0%, -3.1%
COCCn1c(SCC(=O)N2CCCCC2)nc2c(c1=O)SC(C)C2 (centres undefined)
  4.9%, -12.8%
c1ccc(-c2cn3nc4c(nc3n2)CCCC4)cc1
  6.0%, -1.8%
CCCOc1ccc(N2C(=O)CC(N3CCCC(C(=O)N4CCCC4)C3)C2=O)cc1 (centres undefined)
  4.1%, -12.8%
COc1cc2[nH]c(=O)n(Cc3ccc(C(=O)NC4CCCC4)cc3)c(=O)c2cc1OC
  -2.0%, ·
O=C(NCc1nnc2c(C(F)(F)F)cc(Cl)cn12)c1ccco1
  -5.7%, -8.5%
CC(C)C(=O)N1CCC2(CC1)Oc1ccc(Cl)cc1C(=O)C21CC(c2ccc(Cl)cc2)=NO1 (centres undefined)
  2.4%, -3.4%
CCCC(=O)Nc1ccccc1NC(=O)c1ccc(OC(C)=O)cc1
  2.4%, 4.9%
CC(C)(C)NC(=O)c1ccc(Sc2ccccc2)c([N+](=O)[O-])c1
  5.3%, 15.1%
COc1ccc(CCNC(=O)CSc2nnc(NC(C)=O)s2)cc1OC
  0.6%, -16.2%
CN1CCN(CCC(=O)Nc2ccccc2Cl)CC1
  -2.4%, 3.3%
O=C(Nc1ccc(O)cc1)c1ccc(NC(=O)c2cccs2)cc1
  -5.5%, -4.1%
CN1CCN(Cc2nc(-c3cccs3)no2)CC1c1ccccc1 (centres undefined)
  2.7%, -19.2%
CC(NC(=O)COC(=O)c1ccccc1F)C1CC2CCC1C2 (centres undefined)
  -0.7%, ·
COc1ccc(NC(=O)CNc2ccccc2C(C)=O)cc1S(=O)(=O)N1CCOCC1
  0.7%, ·
CCOC(=O)c1cnc(-c2ccccc2)nc1-c1ccccc1
  -8.1%, ?

Individual results from the entries so far:
`CC1(C)CC(=O)c2c(n(-c3cccc4ccccc34)ccc2=O)C1` – TDP1 block = 0.0%
`CC(=O)Nc1c(C(=O)N2CCOCC2)sc2nc3c(cc12)COC(C)(C)C3` – N370S GC mod = 7.5%
`O=C(COC(=O)COc1ccccc1)Nc1ccc(S(=O)(=O)N2CCOCC2)cc1` – TDP1 block = 0.0%
`COc1ccc(Cl)cc1S(=O)(=O)Nc1ccc2c(c1)n(C)c(=O)n2C` – TDP1 block = 8.0%&-5.0%
`CN1CCN(CCC(=O)Nc2ccccc2Cl)CC1` – TDP1 block = -2.4%
`CSc1nc(C(=O)N2CCCC(Nc3ccc(C)c(C)c3)C2)cs1` (centres undefined) – TDP1 block = 9.5%

Later entries:
Each structure is followed by: TDP1 block, N370S GC mod
CC1(C)NC(C)(C)/C(=C\c2cccs2)C(=O)C1=O
  6.0%, -8.3%
COc1ccc2oc(C(=O)N(C)CCOc3ccc(Cl)cc3)c(C)c2c1
  -4.3%, -5.8%
O=C(NCc1ccc(F)cc1)C(=O)NCC1OCCN1C(=O)c1cccs1 (centres undefined)
  -1.1%, 4.2%
CCCN1C(=O)C2(SC(NC(C)=O)=NN2C(C)=O)c2cc(C)cc(C)c21 (centres undefined)
  5.6%, 1.2%
Cc1cc(C)n(C(=O)/C=C/c2cccs2)n1
  -4.2%, 0.7%
Cc1c(NC(=O)C2CC(c3cccc(Br)c3)=NO2)c(=O)n(-c2ccccc2)n1C (centres undefined)
  -2.6%, 4.0%
CC(=O)N1CCCC(N2CCN(c3cccc(C(F)(F)F)c3)CC2)C1 (centres undefined)
  ·, -0.9%
CN(C)C(=O)c1sccc1Oc1ccc(F)cc1[N+](=O)[O-]
  1.6%, 1.2%
O=C(Cc1c[nH]c2ccccc12)NNC(=O)c1ccccc1
  2.6%, -6.6%
COc1ccc(OC)c(Nc2nc(C)nc3c2oc2ccccc23)c1
  ·, 0.5%
CNC(=O)[C@@H]1C[C@H]1[C@@H](NC(=O)CNC(=O)OCc1ccccc1)c1ccccc1
  0.9%, 8.3%
[O-][n+]1c2ccccc2c2n1CCN=C2c1ccc(Cl)cc1
  4.0%, -21.5%

High-throughput results (PubChem)
